Compound activity: PubChem BioAssay, National Center for Advancing Translational Sciences (NCATS)
Sfp inh: inhibitors of Bacillus subtilis Sfp phosphopantetheinyl transferase; AID 1490; Potency, µM, for the others: max response, negative = inhibition, usual class: inhibitors; 310,000 tested, 3.5% active; Biochemical Sfp PPTase activity, qHTS; active means well fitted inhibition curve with a large enough effect; inconclusive means small, poorly fitted or top-dose-only effect, or another doubt; inactive means no such curve, though single readings can be large or run the other way;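 further: the enzyme is Sfp with the accession as filed and its product quenches rhodamine fluorescence; potency means the concentration at half of the fitted maximal effect; 0% = enzyme reaction without inhibitor and -100% = no enzyme wells; top concentration of the series not given in the record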
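Step 1, compound plus 15 nM Sfp-PPTase, 15 min, room temperature. Step 2, add rhodamine-CoA (5 uM) and BHQ-2-YbbR (12.5 uM). Step 3, read 525/598 nm fluorescence at 0 and 30 min.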
Menin-MLL FL inh: menin-MLL binding inhibition, fluorescein peptide | FP activity change, % at 61.4 µM | 290,000 tested, under 10 active | Fluorescence polarization, fluorescein-MLL peptide displacement from menin; inconclusive = falling polarisation curve, or a change in total fluorescence; inactive = total fluorescence flat and polarisation flat or rising; no compound was filed as active; the % refers to the polarisation; negative = inhibition;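 further: % of control where 0% means no effect; inhibitors lower the polarisation; unlabelled MLL peptide was the positive control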
gsp agonist: activates gsp, the McCune-Albright syndrome mutation. gsp mutant cells, cAMP HTRF, 30 min; control for the full effect not named in the record. Potency, µM (titrated, usually from 76.9 µM), without a hit: at the top dose activation (cAMP increase), hits mostly activators. 340,000 tested, 0.13% active; active = well fitted activation curve with a large enough effect; inconclusive = small, poorly fitted or top-dose-only effect, or another doubt; inactive = no such curve, though single readings can be large or run the other way; cell line not stated here;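 further: phosphodiesterase inhibitor Ro 20-1724 added with compounds to block cAMP breakdown; potency means the concentration at half of the fitted maximal effect; nearly all actives have a fitted effect of over 60% in size; about a fifth of the inactives were tested at one dose only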
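Cells stably selected in G418 were plated at 2000/well, grown 16-24 hr, then given compounds in DMSO with the PDE inhibitor […] (300 uM solution added) for 30 min at 37C; cAMP was read by HTRF.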
TRPV1 potentiator: potentiators of human vanilloid receptor 1 (TRPV1); Q8NER1; TRPV1-expressing cells, Fluo-8 calcium influx, capsaicin EC20 potentiation; host cell line not named in the record; control for the full effect not named in the record; potentiation, % at 8.33 µM; 320,000 tested, 0.02% active; AID 540277; active means potentiation above 80%; inconclusive means 30% to 80%; inactive means below 30%; further: 0% is about no effect
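Cells expressing TRPV1 were dye-loaded with Fluo-8 and read kinetically: 10 s baseline, 3 min after compound (agonist portion), then 2 min after EC20 capsaicin (allosteric enhancer portion). Calcium-bound dye fluorescence at 480/520 nm.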
ClpP mod: qHTS Assay for Activators of ClpP. ATP-dependent Clp protease proteolytic subunit (Bacillus subtilis (strain 168)), P80244. purified B. subtilis ClpP, FRET peptide cleavage, 20 min. Potency, µM (doses to about 57.5 µM), without a hit: at the top dose activity change, negative = active. 340,000 tested, 1.9% active. AID 651965, 2013; active = well fitted falling curve with a large enough effect; inconclusive = small, poorly fitted or top-dose-only effect; inactive = no such curve, though single readings can be large or run the other way; further: potency means the concentration at half of the fitted maximal effect; the source files actives as falling curves though it sought activators and does not explain the sign; nearly all actives have a fitted effect of over 65% in size; many hits overshoot -100%
Target sequence (P80244 whole entry, looked up): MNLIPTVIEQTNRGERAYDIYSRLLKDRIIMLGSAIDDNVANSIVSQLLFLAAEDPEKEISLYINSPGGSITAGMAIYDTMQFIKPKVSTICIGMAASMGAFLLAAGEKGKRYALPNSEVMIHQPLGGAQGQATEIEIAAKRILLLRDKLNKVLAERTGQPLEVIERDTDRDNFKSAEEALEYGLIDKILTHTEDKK
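ClpP 10 microg/mL final, pH 8 Tris/KCl buffer with BSA, glycerol, Tween-20; compound pinned in; FRET-FV substrate; RT 20 min; Ex320/Em430; ΔFRET vs ADEP 5.8 microM, DMSO, no enzyme.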
D2 PAM: human D2 receptor positive allosteric modulation; P14416; DiscoveRx D2 beta-arrestin cells, luminescence, 90 min; 100% = 57 uM dopamine signal; potentiation, % (concentration not given with the values); 360,000 tested, 0.23% active; AID 624464; active = potentiation of 50% or more; inconclusive = 30% to 50%; inactive = 30% or less;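 further: compound concentration not given in the record; tested on top of an EC20 dose of dopamine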
Target sequence (P14416 whole entry, looked up): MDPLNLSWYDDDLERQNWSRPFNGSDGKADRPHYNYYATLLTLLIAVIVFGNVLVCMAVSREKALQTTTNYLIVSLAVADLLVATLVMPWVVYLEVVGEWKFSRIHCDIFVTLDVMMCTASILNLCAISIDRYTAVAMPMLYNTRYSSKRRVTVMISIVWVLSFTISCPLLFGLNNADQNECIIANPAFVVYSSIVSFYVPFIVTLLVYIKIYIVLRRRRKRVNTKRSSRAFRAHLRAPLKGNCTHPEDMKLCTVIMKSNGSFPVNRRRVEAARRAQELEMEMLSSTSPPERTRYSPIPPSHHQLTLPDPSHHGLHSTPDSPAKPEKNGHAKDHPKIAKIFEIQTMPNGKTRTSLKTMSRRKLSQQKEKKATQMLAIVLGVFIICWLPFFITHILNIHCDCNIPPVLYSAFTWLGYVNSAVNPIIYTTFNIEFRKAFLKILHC
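PathHunter D2 cells, attached overnight at 37 deg C, received compound in DMSO plus dopamine at EC20 (50 nM final) for 90 min at 37 deg C. Beta-arrestin recruitment was read as luminescence after 1 h with detection reagent at ambient temperature.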
gsp antagonist: antagonizes gsp, the McCune-Albright syndrome mutation | gsp-mutant cells, cAMP HTRF, 30 min; control for the full effect not named in the record | Potency, µM (doses to about 76.9 µM), inactives show at the highest dose activity change, negative = inhibition, hits mostly inhibitors | 340,000 tested, 0.4% active | AID 624288; active = falling curve of any shape with a large fitted effect; inconclusive = falling curve, mostly with a smaller effect; inactive = flat or rising curve; cell line not stated here;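 further: intracellular cAMP measured with PDE inhibitor Ro 20-1724 present during compound exposure; potency means the concentration at half of the fitted maximal effect; on the % scale 0 is the no-effect control and ±100 the full control effect; nearly all actives have a fitted effect of over 65% in size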
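Cells, 2000/well, grown 16–24 h in DMEM 10% FBS with 0.5 mg/ml G418, then compounds plus […] (300 uM addition stock), 30 min at 37C. cAMP read by HTRF (cAMP-d2 and anti-cAMP antibody-K in lysis buffer) after 30 min RT.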
Starred values were filed as active, the others as inactive; ? = inconclusive; . = not tested or not shown; [ ] = remark or other dose.

cpd	Molecule	Menin-MLL FL inh	Sfp inh	gsp antagonist	D2 PAM	gsp agonist	TRPV1 potentiator	ClpP mod
1	CN(C)S(=O)(=O)c1ccc(C(=O)NCC2CC2(Cl)Cl)cc1 (stereo not given)	-1.1	-0.6%	14.6%	-4.8	-1.4%[15.4 µM]	-43.0	0.7%
2	CN(C)CCNC(=O)Nc1ccc(F)cc1F	0.4	5.3%	7.1%	-5.9	-12.4%	-0.3	.
3	COc1ccc(CC(=O)NNc2ncnc3c2cnn3-c2ccc(C)cc2)cc1	4.4	14.9%	-3.2%	11.8	2.1%	1.4	-4.1%
4	Cc1ccc(C)c(OCCC(=O)OCC(=O)NC2CCCC2)c1	.	.	4.4%	-0.3	-2.5%	-5.5	0.6%
5	Cc1cc(/C=C2/NC(=O)NC2=O)c(C)n1-c1ccc(C#N)cc1	-0.6	-9.5%	2.6%	-5.1	1.2%[15.4 µM]	13.4	.
6	CC(=O)Nc1ccc(/C=C/c2nc3ccccc3[nH]c2=O)cc1	0.3	-2.5%	13.4%	-2.0	2.5%[15.4 µM]	5.0	.
7	O=C(c1cccc(-c2nnc(-c3ccccc3)o2)c1)N1CCCCC1	1.9	1.6%	-21.1%	10.0	-62.3%[inhibitor]	-28.1	-8.7%
8	C[C@H](CO)N1C[C@H](C)[C@@H](CN(C)C)Oc2c(NS(=O)(=O)c3ccccc3)cccc2C1=O	.	.	-3.1%	-14.3	4.7%	.	-4.7%
9	CCOc1ccc(S(=O)(=O)Nc2cccc(C(=O)NCCCn3ccnc3)c2)cc1	.	.	11.2%	-2.1	-14.2%	?	-3.6%
10	CSc1cccc(NC(=O)COC(=O)C2CCN(S(=O)(=O)c3ccccc3)CC2)c1	.	.	-5.4%	-1.6	-3.8%	1.2	-0.3%
11	N#Cc1nc(-c2cccc3ccccc23)oc1NCC1CCCO1 (stereo not given)	3.5	?	4.6%	-11.6	-15.9%[15.4 µM]	-14.5	-1.3%
12	CC1=Nn2c(nnc2-c2ccccc2)SC1	0.4	5.1%	3.7%	-1.9	-17.9%	-18.0	0.8%
13	CCCCC(=O)Nc1ccccc1C(=O)OCC(=O)c1ccc2c(c1)OCCO2	3.8	?	-18.8%	-11.5	-7.6%	0.8	-26.6%
14	Cn1cc(CNCc2ccc(OC(F)(F)F)cc2)c(-c2ccc3c(c2)OCCO3)n1	0.8	-7.4%	-1.5%	-16.1	4.8%	4.6	-0.4%
15	CC(C)(C)OC(=O)NC1CNNC1=O (stereo not given)	.	.	11.8%	-13.5	7.1%	19.3	0.1%
16	CCOC(=O)CNc1c(-c2ccc(O)cc2)nc2ccc(Cl)cn12	10.4	-3.2%	?	8.1	10.5%	-23.9	-13.4%
17	CC12CCC(c3c(C(=O)N4CCOCC4)nn(-c4ccccc4)c31)C2(C)C (stereo not given)	-3.6	-0.3%	1.7%	-1.8	-2.8%[15.4 µM]	-8.5	0.7%
18	CC(C)NC(=O)c1ccccc1NC(=O)c1ccccc1N(C)S(C)(=O)=O	5.1	12.5%	-8.1%	-5.0	-22.0%	5.5	-1.4%
19	CC(CC(=O)N1CCN(c2ccccc2)CC1)S(=O)(=O)c1ccc2c(c1)NC(=O)CO2 (stereo not given)	.	5.8%	50.1µM*	3.8	?	-7.5	-3.4%
20	O=C1NC(CCc2ccccc2)C(=O)N1Cc1cccc2ccccc12 (stereo not given)	2.0	-5.3%	-12.8%	-4.9	-9.9%	1.6	-5.5%
21	COc1ccc(/C=N/NC(=O)c2ccccc2NC(=O)c2ccco2)c(OC)c1	-1.9	?	-16.0%	7.8	-39.3%[15.4 µM]	12.1	-19.8%
22	Cc1cc(=O)[nH]c(Nc2ccc(Cl)cc2)n1	5.4	10.0%	9.4%	-13.5	-23.4%	-1.5	-1.2%
23	Cc1cc(C)c(C)c(C(=O)c2ccccc2C(=O)O)c1C	0.2	17.3%	0.1%	21.7	-20.1%	6.5	-0.5%
24	Cc1c(C(=O)Nc2cccc(-c3nnc4n3CCCCC4)c2)oc2ccccc12	0.1	-10.7%	-28.5%	-16.8	-66.5%[inhibitor]	0.5	-8.5%
25	O=C(Nc1ccc2oc(=O)ccc2c1)c1ccc(-c2cccc([N+](=O)[O-])c2)o1	3.9	0.9%	-2.0%	-5.2	24.1%[15.4 µM]	.	.

Entries of single compounds, looked up by structure.
Profile of COc1ccc(/C=N/NC(=O)c2ccccc2NC(=O)c2ccco2)c(OC)c1 → Menin-MLL FL inh = -1.9; Sfp inh = ?; gsp antagonist = -16.0%; D2 PAM = 7.8; gsp agonist = -39.3%[15.4 µM]; TRPV1 potentiator = 12.1; ClpP mod = -19.8%
Profile of CCOc1ccc(S(=O)(=O)Nc2cccc(C(=O)NCCCn3ccnc3)c2)cc1 → Menin-MLL FL inh = .; Sfp inh = .; gsp antagonist = 11.2%; D2 PAM = -2.1; gsp agonist = -14.2%; TRPV1 potentiator = ?; ClpP mod = -3.6%

Carrying on:
cpd	Molecule	Menin-MLL FL inh	Sfp inh	gsp antagonist	D2 PAM	gsp agonist	TRPV1 potentiator	ClpP mod
26	Cc1ccccc1S(=O)(=O)N(C)C[C@@H]1OCc2cnnn2CCCC(=O)N([C@@H](C)CO)C[C@@H]1C	.	.	.	-1.8	1.7%	.	-3.2%
27	CCOC(=O)C(=CNc1cccc(C)n1)C(=O)OCC	-0.3	-3.3%	4.2%	-3.2	-9.1%[15.4 µM]	17.4	-0.1%
28	CC1(C)Cc2cccc(OCC(=O)OCc3nnc(-c4ccc([N+](=O)[O-])cc4)o3)c2O1	.	.	-9.8%	-2.1	23.6%	-15.0	-0.9%
29	COc1ccc(N(CC(=O)N2CCN(C)CC2)S(=O)(=O)c2ccccc2)cc1OC	0.9	15.7%	16.4%	-11.8	-30.3%[inhibitor]	-0.8	0.7%
30	CC1(C)COC2(OC1)C(=O)Nc1ccccc12	-1.8	3.7%	.	-15.6	47.5%[15.4 µM]	4.1	.
31	COc1ccc(/C=N/NC(=O)c2cccnc2)cc1CN1CCc2cc(OC)c(OC)cc2C1C (stereo not given)	0.0	17.0%	-12.5%	-6.4	-6.6%[15.4 µM]	1.8	?
32	O=C(Oc1cccc2cccnc12)c1cccc(N2C(=O)C3C4CCC(C4)C3C2=O)c1 (stereo not given)	0.1	44.7µM*	-7.8%	5.4	-25.5%[15.4 µM]	3.3	-1.8%
33	C=CCNC(=S)N1CCN(CCN=Cc2c(C)[nH]n(-c3ccc([N+](=O)[O-])cc3)c2=O)CC1	2.5	10.7%	.	-9.0	9.3%[15.4 µM]	2.6	.
34	Cc1cccc(N(C(=O)c2ccc(CN3CCOCC3)o2)C(C(=O)NC2CCCCC2)c2ccc(F)cc2)c1 (stereo not given)	-0.8	1.8%	4.0%	-22.0	?	8.7	2.3%
35	COc1cccc(CNC(=O)C2CCN(S(=O)(=O)c3ccc(C)cc3)CC2)c1	.	14.0%	-2.3%	2.6	3.3%[15.4 µM]	-16.1	.
36	O=C(CNS(=O)(=O)c1cccc(Br)c1)NCC1CCCCC1	.	10.4%	1.8%	-5.6	9.7%	-2.6	.
37	CCOC(=O)C(C)n1cnc2c(nnn2-c2cccc(Cl)c2)c1=O (stereo not given)	-1.8	-5.8%	9.3%	-0.9	-22.3%	4.8	-0.1%
38	Nc1ccc2nc(CCCO)[nH]c2c1	-0.3	4.1%	-2.4%	-8.3	1.4%	-19.7	-10.0%
39	CC(C=NNC(=O)C(=O)NN=CC(C)=Cc1ccccc1)=Cc1ccccc1	.	.	2.2%	-1.5	-46.4%[inhibitor]	.	.
40	CC(C)(C)c1ccc(S(=O)(=O)NCc2ccccn2)cc1	-3.4	13.4%	-1.4%	-17.9	-0.3%[15.4 µM]	-26.4	-0.3%
41	COc1ccc(C)cc1NC(=O)C(Sc1nnc(-c2cccs2)o1)c1ccccc1 (stereo not given)	2.3	-6.0%	3.2%	-6.6	7.9%	0.8	-0.4%
42	CN(c1c[nH]c(=O)[nH]c1=O)C1CCCCC1	0.3	6.6%	-0.5%	-1.7	-20.3%[15.4 µM]	0.9	.
43	Cc1cc(-c2nnc(CCC(=O)N(CC3CC3)CC3CCCO3)o2)no1 (stereo not given)	-5.7	19.2%	8.4%	-3.5	0.0%[15.4 µM]	2.8	.
44	Nc1nonc1-c1nc2ccccc2n1CC(=O)N/N=C/c1ccc(-c2cccc(C(=O)O)c2)o1	-5.9	1µM*	-27.6%	-2.8	2.2%[15.4 µM]	3.0	.
45	O=C(Nc1cccc2c1CCCC2)C1CCN(c2nnnn2-c2ccccc2)CC1	-2.0	5.7%	-15.6%	5.9	0.0%	1.6	0.1%
46	COc1ccc2cc(-c3ccon3)ccc2c1	1.2	3.2%	13.8%	-11.6	10.2%	4.7	3.6%
47	CC(=O)N1C[C@H]2CON(C)[C@H]2C[C@H]1c1cccc(-c2ccc(C#N)cc2)c1	.	.	.	-1.0	-42.1%	.	1.0%
48	CC(C)N1CC2=C(C1=O)C(c1ccc(O)cc1)NC(=O)N2C (stereo not given)	-4.4	14.5%	-6.0%	-2.6	-4.8%	-4.2	.
49	Cc1ccc(S(=O)(=O)c2c(C)cc(C)nc2N2CCCC2)cc1	4.3	6.2%	-3.2%	-18.7	?	-0.4	-6.6%
50	CC1(C)CC(=O)/C(=C(/O)Cc2ccccc2)C(=NCCc2ccccc2)C1	0.9	1.1%	1.0%	-15.5	11.2%	-10.9	-1.4%
51	Cc1cccc(Nc2ncnc3c2cnn3C)c1	4.3	6.4%	1.6%	-9.5	?	-13.9	-3.6%
52	Cc1ccc(OCC(=O)NCCC2=CCCCC2)cc1	4.8	3.6%	16.0%	-10.9	5.5%	1.2	0.5%
